Screening data deposited in PubChem by Broad Institute.
FGF22 binding – shifts melting point of recombinant human FGF22; Q9HCT0; recombinant FGF22 thermal shift, SYPRO orange fluorescence; percent of sucrose octasulfate shift, DMSO zero; calls only at 9.99 µM; actives 1.5% (n = 340,000); AID 651658;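 active = melting point raised past a set limit in the mean and every replicate; inconclusive = no clear call; three in four hits are not shown here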
Target sequence (Q9HCT0 whole entry, looked up): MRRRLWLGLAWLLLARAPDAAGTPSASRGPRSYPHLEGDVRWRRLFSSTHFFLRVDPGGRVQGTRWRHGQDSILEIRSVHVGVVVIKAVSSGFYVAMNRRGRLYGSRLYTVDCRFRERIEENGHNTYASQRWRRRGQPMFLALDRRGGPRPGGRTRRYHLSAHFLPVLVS
Ecoli rRNA inh – selective bacterial rRNA inhibition in E. coli; E. coli WT GFP vs humanized-ribosome RFP mutants, fluorescence, 24 h; stronger effect = lower value; DMSO median 0, no signal -100; GFP signal change (wild-type ribosome), % (test concentration not listed); actives 1.6% (n = 350,000); AID 720706;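 active = significant combined selectivity score with lowered wild-type GFP, culture density cut under 30%, mutant RFP and density less affected; inactive = any of these conditions unmet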; note: one replicate is shown; some compounds called inactive have numbers as strong as hits
Calb FLC – affects C. albicans growth with fluconazole; C. albicans CaCi-2 (fluconazole-resistant clinical isolate) + fluconazole, Alamar Blue growth, 48 h; growth inhibition, % (concentration not given with the values); actives 0.57% (n = 300,000); AID 1979;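 active = most replicates above 75%; inconclusive = exactly half above 75%; inactive = most below 75%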;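 note: all wells also contain fluconazole at 8 µg/ml as a sub-toxic cotreatment; 0% = median of DMSO wells and 100% = median of geldanamycin control wells; wells of about 8 µL received 7.5 nL stock; the first replicate is given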
Beta cell apopt – beta cell apoptosis inhibition | actives 0.8% (n = 300,000) | protection from apoptosis, % (test concentration not listed) | AID 435005 | INS-1E cytokine-induced death, ATP luminescence, 48 h; percent of positive-control rescue, neutral wells zero;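 active = all replicates at 75% or more, or half of them and the mean; inconclusive = half reach 75% but not the mean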;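 note: 0% = cytokine-treated negative control wells and 100% = positive control rescue; higher means more ATP so stronger rescue from cytokine killing; wells of about 40 µL received 100 nL stock; the first replicate is given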
T cruzi inh – T. cruzi replication inhibition; T. cruzi beta-gal in NIH3T3, luminescence, 90 h; actives 1.4% (n = 300,000); inhibition, % (concentration not given with the values);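 active = mean inhibition across valid replicates above about 55%, limit read from the data; inconclusive = mean below that limit but half or more replicates reach it; inactive = mean below it, under half of replicates reach it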;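 note: signal also drops with host cell toxicity which is not excluded here; 0% = plate median of DMSO wells and 100% = zero luminescence signal; higher percent means less beta-gal luminescence so fewer parasites; stock transfer was 50 nL into about 50 µL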
ALR H2O2 inh – human ALR oxidase inhibition via reduced H2O2; P55789; purified ALR, DTT oxidation, H2O2 HRP-luminol luminescence; inhibition, % (no concentration beside the values); actives 3.8% (n = 290,000);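 active = mean and each replicate at 75% or more; inconclusive = only one of the two met; inactive = neither met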;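 note: stock transfer was 7.5 nL into about 7.5 µL; 0% = neutral wells and 100% = wells with inactivated enzyme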
Target sequence (P55789 whole entry, looked up): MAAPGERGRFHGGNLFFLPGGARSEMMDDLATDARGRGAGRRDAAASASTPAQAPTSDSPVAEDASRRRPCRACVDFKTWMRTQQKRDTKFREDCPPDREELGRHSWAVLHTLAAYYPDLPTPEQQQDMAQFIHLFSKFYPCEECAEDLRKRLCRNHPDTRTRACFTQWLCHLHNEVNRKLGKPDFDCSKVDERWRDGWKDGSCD
AF4-AF9 inh – inhibitors of human MLL-AF4/AF9 interaction | actives 0.47% (n = 350,000) | inhibition, % at 10 µM | AlphaScreen, biotin-AF4 peptide binding to FLAG-AF9;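 active = every replicate reaching a set inhibition limit, whatever the replicate mean, cut at about 25% in these data; inconclusive = mean inhibition reaches that limit but some replicates miss it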;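 note: 0% = plate neutral control median and 100% = total signal loss; the record names both 10 and 1 µM as test concentration; the first replicate is given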
Target sequence (P42568 whole entry, looked up): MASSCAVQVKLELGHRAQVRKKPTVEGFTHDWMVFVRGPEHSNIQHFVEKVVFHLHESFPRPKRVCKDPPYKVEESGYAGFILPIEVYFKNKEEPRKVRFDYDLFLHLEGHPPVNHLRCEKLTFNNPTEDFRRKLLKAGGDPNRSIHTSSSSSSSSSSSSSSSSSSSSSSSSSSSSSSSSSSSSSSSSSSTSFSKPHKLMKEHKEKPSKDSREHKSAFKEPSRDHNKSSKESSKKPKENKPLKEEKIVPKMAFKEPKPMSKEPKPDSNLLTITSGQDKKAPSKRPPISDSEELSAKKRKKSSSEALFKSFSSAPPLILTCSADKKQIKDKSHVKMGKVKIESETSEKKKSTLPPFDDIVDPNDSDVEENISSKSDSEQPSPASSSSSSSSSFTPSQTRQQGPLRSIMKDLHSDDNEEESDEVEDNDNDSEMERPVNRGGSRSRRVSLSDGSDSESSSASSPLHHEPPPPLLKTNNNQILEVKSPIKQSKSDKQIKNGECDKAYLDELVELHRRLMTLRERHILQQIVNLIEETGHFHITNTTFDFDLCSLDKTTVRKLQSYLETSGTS
RanGTP-Impb inh – disruptors of Ran-importin-beta complex formation – biochemical, FRET, CFP-Ran, YFP-importin-beta, homogeneous, primary screen. cell-free CFP-Ran/YFP-importin-beta FRET ratio. inhibition, % (test concentration not listed). actives 1.1% (n = 300,000). AID 2216;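 active = most replicates above 15%; inconclusive = exactly half above 15%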;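 note: 0% = DMSO wells and 100% = Ran loaded with GDP instead of GTP; wells of about 40 µL received 100 nL stock; the first replicate is given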
Ecoli rRNA inh OD600 – recorded beside Ecoli rRNA inh, whose call it bears; OD600 change, %; measured here: OD600 growth;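 optical density of the mix in the first replicate; 0 = DMSO median and -100 = no signal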
Ecoli rRNA inh RFP – also measured in Ecoli rRNA inh; calls as there; RFP signal change, %; measured here: RFP humanized mutant strains;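 first replicate; 0 = DMSO median and -100 = no signal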
The depositor's hits bear a star; i = inactive; ? = inconclusive; . = not tested or not shown. Only part of the results is shown (hit frequency here may not be typical).

SMILES	FGF22 binding	Ecoli rRNA inh	Ecoli rRNA inh OD600	Ecoli rRNA inh RFP	Calb FLC	Beta cell apopt	T cruzi inh	ALR H2O2 inh	AF4-AF9 inh	RanGTP-Impb inh
Cc1ccc(NC(=O)CCc2nnc3ccc(N4CCOCC4)nn23)cc1C	i	10	-1	-0.2	-5	-6	-7	-4	-0.9	8.6
Cc1cccc(N(C)c2ncnc3onc(-c4ccc(F)cc4)c23)c1C	i	-14	-4	-12	2	2	-12	-21	-0.4	4.3
CCN(C(=O)CCS(=O)(=O)c1cccc2nonc12)c1ccc(F)cc1	i	11	12	2.1	20	-5	5	.	-12	-0.9
Cc1cc(N2CCCC2)ccc1/C=N/n1cnnc1	.	.	.	.	-2	-1	-19	47	.	2.8
CC(C)n1c(Sc2nccn2C)nc2c1c(=O)n(C)c(=O)n2C	i	5	1	-4.6	1	-3	-6	-18	-29	2.2
COc1ccc(C)cc1NC(=O)CC(O)(C(F)(F)F)C(F)(F)F	.	.	.	.	-16	.	-21	-7	.	-2.2
CC(C(N)=O)N1C(=O)NC2(CCCc3ccccc32)C1=O (stereo not drawn)	i	4	6	-0.8	-7	0	-7	-5	1.5	-0.4
CC1CCN(CC(=O)N2CC(=O)Nc3ccccc32)CC1	.	.	.	.	2	-5	-26	-3	.	4.1
CCCc1nc(SCc2ccc(Cl)cc2Cl)n[nH]1	.	.	.	.	-9	-2	18	0	.	6.2
CCC(Sc1nc2sc(C(=O)OC)c(C)c2c(=O)n1N)C(=O)N(CC)CC (stereo not drawn)	.	.	.	.	36	-11	-10	-4	.	-3.6
COc1ccc(CCNc2nc(=O)[nH]nc2C)cc1OC	.	.	.	.	-16	-4	-15	-12	.	-4.4
COc1ccc([N+](=O)[O-])cc1NC(=O)COC(=O)c1ccccc1O	i	17	7	3.0	-7	3	-8	-1	0.9	-1.7
CCOC(=O)c1c(NC(=O)Cc2cccs2)sc(C(=O)N2CCCCC2)c1C	.	.	.	.	-13	1	22	-14	.	3.9
O=c1oc(Nc2ccccc2F)nc2ccccc12	.	.	.	.	-12	5	-19	2	.	?
O=C(Nc1ccc(F)cc1)c1nc[nH]c1C(=O)Nc1ccccc1[N+](=O)[O-]	.	.	.	.	3	70	-10	-6	.	6.9
O=C(O)c1cc(CN2CCOCC2)oc1-c1ccccc1	.	.	.	.	?	3	-19	0	.	?
Cc1ccc(C)c(NC(=O)C(CC(=O)O)Cc2ccccc2)c1 (stereo not drawn)	i	-2	-8	-1.6	10	-2	-9	-2	-2.0	-1.8
COC(=O)c1cc2sc(Cl)cc2n1CC(=O)NCCC(C)C	.	.	.	.	4	3	8	-29	.	7.7
Cc1ccc(C(=O)NNC(=O)c2ccccc2O)cc1S(=O)(=O)N1CCCCC1	i	-28	-26	-7.5	-4	.	9	13	-1.2	1.3
Cc1cc(-c2ccco2)c(C#N)c2nc3ccccc3n12	.	.	.	.	-3	1	26	.	.	-42
O=C(CSc1nc2[nH]ncc2c(=O)n1-c1ccccc1)NCCc1ccccc1	i	9	-10	1.5	-5	-3	7	-9	6.5	0.0
COc1cccc(CNC(=O)CCC2CCCN(C(=O)c3ccoc3)C2)c1 (stereo not drawn)	i	7	1	-9.0	13	-4	-5	-2	-0.9	-1.7
O=C(NC1CCCC1)c1cc(-c2ccccc2Cl)on1	i	-9	-4	-1.8	-18	8	-1	-4	-1.3	-4.9
Cc1ccn(CCC(=O)N2CCc3ccccc32)n1	i	7	5	-0.8	2	-4	-17	-7	-1.3	1.2
Cc1cc(C)n(CC(=O)N/N=C/c2cccs2)n1	.	.	.	.	-11	2	14	-3	.	-2.6
CCOC(=O)C1(CCOc2ccccc2)CCN(Cc2ccc(OCCO)cc2)CC1	i	-1	-10	-2.8	-7	3	12	2	0.3	5.3
CCC(CC)NC(=O)Cn1c(C(C)NC(C)=O)nc2ccccc21 (stereo not drawn)	i	9	2	-0.9	-3	3	21	6	-6.4	-3.0
O=S(=O)(c1ccc(Br)cc1Cl)N1CCN(CCO)CC1	i	1	-2	1.3	-5	-1	-9	-14	0.9	3.4
O=C(NC1CCCC1)c1ccc(CNc2c(N3CCOCC3)c(=O)c2=O)cc1	i	3	6	-1.0	4	.	-8	9	-5.9	2.3
COc1ccc(C(=O)O)cc1S(=O)(=O)Nc1cccc(C(F)(F)F)c1	.	.	.	.	.	3	-9	1	.	5.7
O=C(COC(=O)CSc1ccc([N+](=O)[O-])cc1)NCc1ccco1	i	11	12	0.1	4	.	1	1	-1.3	1.6
O=c1c2ccsc2ncn1Cc1cccc(C(F)(F)F)c1	.	.	.	.	-6	-1	9	-4	.	-0.1
COc1ccc(-c2csc(/C(C#N)=C/Nc3cc4oc5ccccc5c4cc3OC)n2)cc1	i	36	27	5.0	-1	1	-5	-65	-0.9	-0.6
COC(=O)c1sc2nc3c(c(-c4cccs4)c2c1N)CCCC3	.	.	.	.	-1	3	5	-11	.	5.3
Nc1ccn([C@H]2CC[C@@H](CO)O2)c(=O)n1	i	.	.	.	.	17	-3	-7	-1.9	4.9
Cc1ccc(-c2nc3ncccc3o2)cc1NC(=O)c1ccc([N+](=O)[O-])o1	.	.	.	.	-11	27	49	-14	.	1.9
COC(=O)CCn1nc(-c2ccc(C)cc2)c2ccccc2c1=O	i	-8	2	-0.8	7	-10	16	-7	0.5	3.2
CCS(=O)(=O)NC(C)C(c1cccs1)N1CCN(c2ccc(F)cc2)CC1 (stereo not drawn)	i	-5	-21	-5.5	1	0	-16	.	14	1.9
CC1=C(C(=O)Nc2cccnc2)C(c2cccnc2)n2ncnc2N1 (stereo not drawn)	.	.	.	.	-9	-2	-25	-14	.	3.2
COc1ccc(C2Nc3ccccc3C(=O)N2Cc2ccco2)cc1COc1ccc(NC(C)=O)cc1 (stereo not drawn)	.	.	.	.	14	12	4	-9	.	1.3
CCOc1ccc(NC(=O)c2ccc(CNc3c(N4CCCC4)c(=O)c3=O)cc2)cc1	i	4	-6	-3.2	-11	5	-23	-2	-1.5	2.7
O=C(CN(C(=O)C1CSC(=O)C1)c1cccc(F)c1)NC1CCCC1 (stereo not drawn)	i	16	11	1.3	0	-7	-3	-3	-1.4	?
CCCn1nc2cc(C(=O)NC3CCc4ccccc43)ccc2c1OCC (stereo not drawn)	i	0	7	-2.3	-4	-1	3	1	2.6	-4.0
O=C(Nc1nc(-c2ccc(Cl)s2)cs1)c1cccs1	.	.	.	.	-10	8	76*	18	.	-3.6
CC1CC(C)CN(C(=O)CCNC(=O)c2ccccc2Cl)C1 (stereo not drawn)	i	1	12	-0.7	-13	0	-12	-16	-7.4	-0.3
CCOC(=O)Cn1c(=NC(=O)CN2C(=O)CCC2=O)sc2cc(S(N)(=O)=O)ccc21	i	2	6	-2.8	-1	-4	-18	34	-0.1	3.2
O=C(O)CCSc1nnc(-c2ccncc2)n1-c1ccccc1	.	.	.	.	-2	2	-8	0	.	5.2
Cc1ccc2c(ccn3cc4c(c(=O)n(C)c(=O)n4C)c23)c1	i	6	10	-2.9	?	-13	-11	7	0.0	0.9
O=C(Nc1ccccc1-c1ccccc1)NC1CC2CCCC(C1)N2Cc1ccc(F)cc1 (stereo not drawn)	i	-21	-22	5.6	-2	23	45	-4	5.8	2.0
COc1cccc(OCC(=O)Nc2cc(NC(=O)COc3cccc(OC)c3)cc(C(=O)O)c2)c1	i	6	2	-1.2	4	-2	-6	99*	-5.7	-5.9

Results in Calb FLC (two entries from above):
SMILES | Calb FLC
CC1CC(C)CN(C(=O)CCNC(=O)c2ccccc2Cl)C1 (stereo not drawn) | -13
CCOc1ccc(NC(=O)c2ccc(CNc3c(N4CCCC4)c(=O)c3=O)cc2)cc1 | -11

(next part)
SMILES	FGF22 binding	Ecoli rRNA inh	Ecoli rRNA inh OD600	Ecoli rRNA inh RFP	Calb FLC	Beta cell apopt	T cruzi inh	ALR H2O2 inh	AF4-AF9 inh	RanGTP-Impb inh
Cc1nn(Cc2ccc(Cl)cc2Cl)c(C)c1NC(=O)Cn1nc([N+](=O)[O-])c(Cl)c1C	.	.	.	.	3	4	17	7	.	-1.7
CCOc1ccccc1N1CCN(CC(=O)NCCc2ccc(S(N)(=O)=O)cc2)CC1	.	20	11	1.5	13	-9	-5	14	-2.4	-1.6
CN(C)C(CNC(=O)c1cc(S(=O)(=O)N(C)c2ccccc2)ccc1Cl)c1cccs1 (stereo not drawn)	.	-35*	-24*	-5.4*	-5	-2	15	0	3.8	4.6
Cc1ccc(NC(=S)N2CCN(c3nccc(C(F)(F)F)n3)CC2)c(C)c1	i	3	7	-1.0	-1	-2	4	-13	0.3	-2.2
NC1=NC[C@H](c2ccccc2)N1CCCCC1CCCCC1	i	-58	-80	-25	58	38	50	-3	10	3.8
Cc1ccc(C(=O)NCC(=O)OCc2csc(-c3ccccc3)n2)cc1	.	.	.	.	-16	-8	10	3	.	2.2
Cn1nccc1C(=O)N1CCN(C23CC4CC(CC(C4)C2)C3)CC1	i	13	9	1.7	-14	-1	2	1	-0.3	1.2
CCOC(=O)C(N)CSC1CC(=O)N(c2ccc(C(=O)OC)cc2)C1=O (stereo not drawn)	.	.	.	.	0	-4	-7	-6	.	-1.1
COc1ccc(OC)c(C=NNC(=O)c2ccccc2NS(=O)(=O)c2cccs2)c1	i	3	12	-1.1	.	-3	.	11	-2.2	.
CCC(C)NC(=O)NC(=O)N(C1CCCCC1)S(C)(=O)=O (stereo not drawn)	.	.	.	.	50	.	-13	-8	.	0.4
COc1ccc(-c2cc(C(=O)N3CCOCC3)no2)cc1	i	4	-6	-1.6	-2	-5	-5	-2	-0.8	?
COc1cc(C=NNC(=O)c2ccccc2NS(=O)(=O)c2cccs2)cc(OC)c1O	i	-52	-71	-16	.	3	.	99*	-1.9	.
Cc1ccnc(NS(=O)(=O)c2ccc(NC(=O)CCOc3ccccc3)cc2)n1	i	4	25	-0.3	2	2	5	0	0.0	3.1
CC1(C)C(C#N)=C(N)OC2=C1C(=O)CCC2	i	20	1	1.6	-1	1	-10	0	1.4	0.6
C#CCOCCOCCOCCNc1nc(N2CCN(C(=O)[C@H](Cc3cc4ccccc4[nH]3)n3cc([C@@H](N)C(C)CC)nn3)CC2)nc(N2CCN(C(=O)[C@H](CCCCN)n3cc([C@@H](N)CC(C)C)nn3)CC2)n1 (stereo partly drawn)	.	.	.	.	13	11	-18	-24	.	8.2
Cc1nnc2ccc(-c3cccc(NC(=O)c4ccc(Cl)nc4)c3)nn12	i	-4	-2	-4.9	4	5	-3	-2	-2.7	4.8
O=C(OCc1cc(Cl)ccc1OC(F)F)c1cncc(Br)c1	i	-24	-25	-3.4	?	-3	-6	-1	-2.0	-0.6
Cc1cc(=O)n2[nH]c(-c3ccc(F)cc3)cc2n1	.	.	.	.	8	0	-1	-5	.	0.1
Cc1cc(C)nc(Nc2n[nH]c(COc3ccc(Cl)cc3)n2)n1	.	.	.	.	?	9	-1	.	.	-0.7
CCOC(=O)CN(Cc1sccc1C)C(=O)Nc1cccc(OC)c1	i	-6	-4	-0.2	-21	.	8	-3	-0.5	0.2
